Source: PubChem (National Center for Advancing Translational Sciences (NCATS))
A488 autofl: qHTS Assay for Spectroscopic Profiling in A488 Spectral Region. compound autofluorescence, A488 spectral region, dye equivalency; hits give high values. max dye equivalency, M. 59,000 compounds, 0.1% hits; active = above 10 nM dye equivalent; inconclusive = 1 to 10 nM; inactive = 1 nM or less; about half of its hits are not listed in these tables;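 further: highest value over a series up to 38 µM; compound alone in buffer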
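Compounds pin-transferred into 100 mM Tris buffer, pH 8.0, incubated 15 min at room temperature, then imaged with 480 nm excitation/540 nm emission filters. Fluorescence converted to Alexa 488 dye-equivalent concentration via an on-plate six-point A488 standard curve.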
A647 fluor: qHTS Assay for Spectroscopic Profiling in A647 Spectral Region; AID 592, 2007; 59,000 tested, under 10 active; max dye-equivalent concentration, M; Compound fluorescence, A647 channel (570/671 nm), Tris buffer; active means above 1 µM dye equivalent; inconclusive means 0.1 to 1 µM; inactive means 0.1 µM or less;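 further: values scaled relative to a standard on each plate; highest value over a series up to 38 µM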
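Spectral profiling of library compounds in pH 8.0 Tris: 15 min room-temperature incubation, single ex/em pair (570/671 nm), response normalized to Alexa 647 equivalents.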
AID923: qHTS Assay for Allosteric/Competitive Inhibitors of Caspase-1: Spectroscopic Profiling in AFC Spectral Region; 75,000 compounds, 1.1% hits; Potency, µM (titrated, usually from 57.5 µM), for inactives: top-dose fluorescence increase, usual class: activators; compound fluorescence, AFC spectral region (405/520 nm); almost no hit is shown here; active means well fitted activation curve with a large enough effect; inconclusive means small, poorly fitted or top-dose-only effect;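 further: potency means the concentration at half of the fitted maximal effect; 0% is about no effect; scaled to a free AFC standard on each plate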
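Titrations up to 57 uM read every 20 sec for 3 min (405/520 nm) with 50 nM caspase 1 and 5 uM Ac-WEHD-AFC, pH 7.5 HEPES buffer. Fluorescence-vs-time intercept gave baseline, scaled against on-plate AFC standard.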
TSHR ag: qHTS Assay for Agonists of the Thyroid Stimulating Hormone Receptor | Thyrotropin receptor (Homo sapiens), P16473 | HEK293-CNG-TSHR cells (CNG channel as cAMP sensor), membrane potential dye, cAMP | Potency, µM (doses to about 57.1 µM), for inactives: top-dose activation, actives largely listed as activators | 73,000 compounds, 0.48% hits | AID 926, 2007; active = well fitted activation curve of enough size with the parental cells flat; inconclusive = any curve in the parental cells; inactive = parental cells flat and receptor cells flat or falling; further: potency means the concentration at half of the fitted maximal effect; % of control where 0% means no effect; weak receptor curves with flat parental cells got no call and are not listed
Target sequence (P16473 whole entry, looked up): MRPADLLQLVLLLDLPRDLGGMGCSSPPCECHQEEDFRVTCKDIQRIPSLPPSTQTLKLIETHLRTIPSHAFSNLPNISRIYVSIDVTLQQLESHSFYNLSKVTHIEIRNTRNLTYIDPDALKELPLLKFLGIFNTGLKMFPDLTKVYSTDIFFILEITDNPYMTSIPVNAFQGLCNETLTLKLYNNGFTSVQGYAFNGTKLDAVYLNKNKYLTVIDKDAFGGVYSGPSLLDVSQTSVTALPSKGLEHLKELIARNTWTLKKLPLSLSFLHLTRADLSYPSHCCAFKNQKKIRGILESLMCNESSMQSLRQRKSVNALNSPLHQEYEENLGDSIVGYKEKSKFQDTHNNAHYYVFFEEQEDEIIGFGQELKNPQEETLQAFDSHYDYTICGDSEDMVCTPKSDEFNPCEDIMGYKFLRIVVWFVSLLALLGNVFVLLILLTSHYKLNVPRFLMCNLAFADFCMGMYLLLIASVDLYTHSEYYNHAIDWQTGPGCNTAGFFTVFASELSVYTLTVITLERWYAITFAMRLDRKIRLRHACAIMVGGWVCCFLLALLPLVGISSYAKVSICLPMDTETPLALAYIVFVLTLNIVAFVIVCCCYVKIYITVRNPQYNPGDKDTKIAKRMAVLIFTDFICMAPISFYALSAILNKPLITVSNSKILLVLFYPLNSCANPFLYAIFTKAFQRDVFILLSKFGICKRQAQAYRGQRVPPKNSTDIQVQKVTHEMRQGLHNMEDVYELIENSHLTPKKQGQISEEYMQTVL
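HEK 293 cells stably expressing TSHR and a cAMP-gated CNG channel; parental CNG-only cells as counterscreen. Cells preloaded 60 min with membrane potential dye plus 100 uM RO 20-1724, then compound 30 min; fluorescence read at 590 nm.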
Resorufin autofl: qHTS Assay for Spectroscopic Profiling in Resorufin Spectral Region; Compound fluorescence, resorufin region 547/598 nm, buffer; hits give high values; max dye-equivalent concentration, M; 59,000 compounds, 0.04% hits; active = above 10 nM dye equivalent; inconclusive = 1 to 10 nM; inactive = 1 nM or less; a few of its hits are not listed in these tables; further: highest value over a series up to 38 µM
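Read-out: intrinsic compound fluorescence at ex 547/em 598 nm after 15 min at RT in pH 8.0 Tris (100 mM). Values expressed as resorufin-equivalent concentration from per-plate standard series.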
* marks the source's active call; other numbers are inactive results; i = inactive; u = inconclusive; x = not tested or not shown; [ ] = another dose, or the depositor's remark. Only part of the results is shown; the hit share may differ from the screen's.

SMILES | A488 autofl | A647 fluor | AID923 | TSHR ag | Resorufin autofl
CC(=O)N1[C@H](Cc2ccccc2)C=C[C@]1(C)C(=O)O | x | x | -1.5% | 3.2% | x
C[C@]12CC[C@@H]3c4ccc(O)cc4CC[C@H]3[C@@H]1CC[C@@H]2OC(=O)CCC(=O)O | i | 5.01e-08 | x | x | i
C=CCn1c(SCC(=O)OC)nc2sc3c(c2c1=O)CCN(C)C3 | i | 7.73e-08 | x | x | i
O=C(c1cccc(F)c1)N1CCC2(CCCN(c3ccc(-c4ccccc4)cc3)C2)CC1 | i | 7.1e-09 | 3.8% | -0.2% | i
COc1cc(-c2nn3c(-c4ccccc4)nnc3s2)cc(OC)c1OC | i | 2.75e-08 | 1.5% | 10.5% | i
CC(C)OC(=O)CSc1nnc(-c2cccnc2)n1N | i | 3.8e-09 | 0.1% | -0.1% | i
Cc1ccc(NS(=O)(=O)c2cc(C(=O)O)ccc2Cl)c(C)c1 | i | 6.3e-09 | -0.5% | 1.1% | i
CC(C)Cc1cc(C(=O)Nc2c(F)cc(F)cc2Br)no1 | x | x | -1.0% | 4.2% | x
C=CCOC(=O)c1sc(N2C(=O)c3oc4ccccc4c(=O)c3C2c2ccco2)nc1C (stereo not drawn) | x | x | 3.0% | -4.3% | x
CCOc1ccc(S(=O)(=O)Nc2cccc(Cl)c2)cc1 | i | 1.53e-08 | -2.2% | -2.5% | i
CCCCCCn1c(CN2CCCCC2C)nc2c1c(=O)n(C)c(=O)n2C (stereo not drawn) | i | 1.9e-08 | 1.0% | 12.7% | i
CC(C)OC(=O)C1C2C=CC3(CN(C(C)c4ccc(Br)cc4)C(=O)C13)O2 (stereo not drawn) | x | x | 2.9% | 0.2% | x
c1ccc(-c2nn3c(Cn4cnc5ccccc54)nnc3s2)cc1 | i | 4.27e-08 | 1.2% | 15.7% | i
CN(C)c1ccc(-c2noc(-c3ccccc3O)n2)cc1 | i | 3.9e-09 | 0.5% | -5.2% | i
O=C(Oc1ccccc1C(=O)N1CCOCC1)c1cccc(Br)c1 | i | 1e-09 | -0.5% | 10.7% | i
CCN1CCN(CCCNC(=O)c2cc3cc4ccc(OC)cc4nc3o2)CC1 | i | 1e-09 | 3.1% | 11.8% | i
CC(Sc1n[nH]c(=O)[nH]c1=O)C(=O)OCc1ccccc1 (stereo not drawn) | x | x | 0.2% | 2.4% | x
Cc1ccc(S(=O)(=O)NCc2csc(C)n2)c(C)c1 | i | 1e-09 | -1.0% | 1.2%[11.4 µM] | i
O=C(CSCc1ccccc1)N1CCN(C(=O)c2ccco2)CC1 | i | 1e-09 | 0.5% | -0.3% | i
COc1ccc(-n2nnnc2-c2cccc(OC)c2)cc1 | i | 6.1e-08 | -0.6% | u | i

4 of these compounds, set out differently.
CN(C)c1ccc(-c2noc(-c3ccccc3O)n2)cc1
  A488 autofl = i	A647 fluor = 3.9e-09	AID923 = 0.5%	TSHR ag = -5.2%	Resorufin autofl = i

O=C(Oc1ccccc1C(=O)N1CCOCC1)c1cccc(Br)c1
  A488 autofl = i	A647 fluor = 1e-09	AID923 = -0.5%	TSHR ag = 10.7%	Resorufin autofl = i

CCN1CCN(CCCNC(=O)c2cc3cc4ccc(OC)cc4nc3o2)CC1
  A488 autofl = i	A647 fluor = 1e-09	AID923 = 3.1%	TSHR ag = 11.8%	Resorufin autofl = i

CC(Sc1n[nH]c(=O)[nH]c1=O)C(=O)OCc1ccccc1 (stereo not drawn)
  A488 autofl = x	A647 fluor = x	AID923 = 0.2%	TSHR ag = 2.4%	Resorufin autofl = x

(next part)
SMILES | A488 autofl | A647 fluor | AID923 | TSHR ag | Resorufin autofl
Cc1cc(C)cc(NCC(=O)Nc2c(C)cccc2C)c1 | i | 1e-09 | -0.9% | x | i
CSc1cccc(NS(=O)(=O)c2ccc3c(c2)oc(=O)n3C)c1 | x | x | -0.3% | 1.5% | x
CC1(C)OC(=O)C(=CNC(Cc2c[nH]c3ccccc23)C(=O)O)C(=O)O1 (stereo not drawn) | i | 1e-09 | -0.2% | -2.3% | i
Cc1ccc(NC(=O)c2ccccc2C(=O)O)cc1C | i | 1e-09 | 5.5%[11.5 µM] | -1.9%[11.4 µM] | i
C=CCc1cccc(C2NC(C(=O)O)CCC2C)c1 (stereo not drawn) | x | x | -1.2%[11.5 µM] | -7.0%[11.4 µM] | x
COc1ccc(Cl)cc1N(CC(=O)N1CCC(C)CC1)S(C)(=O)=O | x | x | 0.4% | 10.1% | x
Cc1c(C(=O)NCc2ccccc2)oc2c1C(=O)CCC2 | i | 2.78e-08 | -0.7% | 13.6% | i
Cc1cc(C(F)(F)F)nn1CC(=O)NCC1CCCO1 (stereo not drawn) | i | 4.36e-08 | x | x | i
COc1ccc(-c2nc3ccccc3c(=O)n2CCN2CCOCC2)cc1 | i | 1e-09 | -0.8% | -6.3% | i
O=C(O)c1cc(S(=O)(=O)Nc2ccccc2C(=O)O)ccc1O | x | x | -1.2% | 11.9% | x
Cc1ccc(Nc2nnns2)cc1C | i | 8.1e-09 | 0.5% | 10.0% | i
COc1cc(NS(=O)(=O)c2ccc(NC(=O)NC3CCCCC3)cc2)nc(OC)n1 | i | 1.4e-08 | 1.3% | 0.2% | i
Cc1ccccc1-c1nc(CN2CCC(C(=O)NCc3cccnc3)CC2)c(C)o1 | i | 2.33e-08 | -1.1% | 5.9% | i
O=C(Oc1cccc2cccnc12)c1ccc2c(c1)OCCO2 | i | 2.81e-08 | 1.7% | 18.2% | i
O=C(CN1CCN(Cc2ccc(F)cc2)C1=O)NCc1cccs1 | x | x | -2.1% | u | x
CC(=O)OCc1ccc2c(c1)OCO2 | x | x | -0.5% | -5.5% | x
C=CCn1cc(C(=O)NCCCOC)c(=O)c2cc(S(=O)(=O)N3CCC(C)CC3)ccc21 | x | x | -2.7% | 2.4% | x
O=C1CC(c2cccc(Cl)c2)Cc2nc(N3CCOCC3)ncc21 (stereo not drawn) | i | 3.75e-08 | -0.1% | u | i
CCOc1cc2[nH]c(=S)n(CCCOC)c(=O)c2cc1OCC | i | 3.5e-09 | 0.6% | -1.7% | i
O=C(c1cccc(F)c1)N1CCC[C@@]2(CCN(c3ccccn3)C2)C1 | i | 1.7e-09 | 0.9% | u | i
COc1ccc(C(=O)N2CCN(C(=O)c3cc(OC)c(OC)c(OC)c3)CC2)cc1 | i | 1e-09 | 0.0% | -0.3% | i
COc1ccc(C(=O)Nn2cnc3scc(-c4cccs4)c3c2=O)c(O)c1 | i | 1e-09 | -0.5% | 12.6% | i
O[C@@H]([C@H](O)[C@@H](O)CBr)[C@@H](O)CBr | x | x | -0.8% | -0.7% | x
COc1ccc(C(=O)N2CCC[C@@]3(CCN(Cc4ccccc4)C3)C2)cc1 | i | 2.9e-09 | 0.1% | u | i
COc1ccc(-n2c(Cc3cccn3C)nnc2SCC(=O)Nc2ccc(C)cc2)cc1 | x | x | 7.4% | 4.4% | x
Cc1cc(Nc2cc(C(=O)O)ccc2C)n2ncnc2n1 | x | x | -3.0% | 1.9% | x
CN(C)CCN1C(=O)C(=O)/C(=C(/O)c2ccc(OCc3ccccc3)cc2)C1c1ccncc1 (stereo not drawn) | i | 5.1e-09 | 0.6% | 6.8% | i
COc1ccc(C(=O)NC(C)c2nc3ccccc3n2C)cc1OC (stereo not drawn) | i | 3.7e-09 | -0.5% | 0.8%[11.4 µM] | i
CCNc1nc(SCc2ccccc2)nc(N2CCOCC2)n1 | i | 3.22e-08 | 0.1% | x | i
COc1ccc(NS(=O)(=O)c2c(C)n(C)c(=O)n(C)c2=O)cc1OC | x | x | 2.8% | -2.3% | x
Cc1cnnc2c1-c1no[n+]([O-])c1CC2 | i | 2.1e-09 | 0.9% | 5.2% | i
COC(=O)c1cc(OC)c(OC)cc1NC(=O)Nc1ccccc1OC | i | 3.33e-08 | -1.1% | 5.0% | i
CS(=O)(=O)N1CCN(c2ccc(NC(=O)c3ccc(Br)o3)cc2)CC1 | i | 7.6e-09 | 1.3% | -3.5% | i
Nn1cnn(Cc2ccccc2)c1=S | i | 1.81e-08 | 0.1% | 8.6% | i
CCC(=O)Nc1sc2c(c1C(N)=O)CCC2 | i | 1.5e-08 | -3.0% | 14.3% | i
CCOc1ccc(-c2cc(C(=O)N3CCN(c4ccccn4)CC3)c3ccccc3n2)cc1 | i | 3.09e-08 | -0.7% | 4.3%[11.4 µM] | i
CCc1ccc(C2C(C(C)=O)=C(C(=O)OC)Nc3nnnn32)cc1 (stereo not drawn) | i | 1.4e-09 | 1.3% | u | i
Cc1ccc(-c2nnc(N3CCN(c4ccccn4)CC3)c3ccccc23)cc1 | i | 1.2e-09 | 2.7% | 14.2% | i
Cc1cc(S(=O)(=O)Nc2ccccc2C(=O)O)ccc1F | x | x | -0.8% | 1.8% | x
O=C(NC1CCCCC1)N1CCC(c2nc3ccc(Cl)cc3[nH]2)CC1 | i | 1e-09 | 0.9% | 2.3% | i
CCOC(=O)c1ccc(CSc2nncn2N)o1 | x | x | 0.3% | 9.4% | x
C=C(C)COc1ccc2c3c(c(=O)oc2c1OCC(=C)C)CCC3 | x | x | 1.2% | u | x
COc1ccc(CCN2C(=O)CC(NCc3ccc4c(c3)OCO4)C2=O)cc1OC (stereo not drawn) | i | 5.5e-09 | 0.7% | u | i
C=CCn1c(=N)n(CC(=O)OCC)c2ccccc21 | i | 1e-09 | -2.7% | 0.8%[11.4 µM] | i
Cc1noc(C)c1COC(=O)CCc1nc2ccccc2s1 | i | 2.92e-08 | -1.3% | 3.8% | i
CN1CCN(c2ccc(NC(=O)c3ccccc3Br)cc2)CC1 | i | 5.8e-09 | 0.0% | x | i
O=C(N1CCCCC1)N1CCN(C(=O)N(c2ccccc2)c2ccccc2)CC1 | i | 2.14e-08 | -1.0% | 4.9% | i
O=C(c1ccco1)N1CCN(Cc2ccc(Cl)cc2)CC1 | x | x | 0.3% | 11.9% | x
Cc1cc(NC(=O)CSc2nnc(COc3ccccc3)o2)no1 | i | 4.22e-08 | 0.2% | -2.7% | i
O=C(COc1ccc(Br)cc1)OCc1nnc(-c2ccccc2)o1 | i | 3.04e-08 | 0.6% | 10.7% | i
(further entries)
SMILES | A488 autofl | A647 fluor | AID923 | TSHR ag | Resorufin autofl
Cc1n[nH]c(C)c1S(=O)(=O)N1CCCC(C(=O)NCC2COc3ccccc3O2)C1 (stereo not drawn) | i | 1.45e-08 | -0.1% | u | i
CCCc1cc(=O)oc2c(C)c3occ(C)c3cc12 | x | x | 2.6% | u | x
CNC(=O)CCn1nc(-c2ccc(Cl)cc2)c2ccccc2c1=O | i | 1.91e-08 | -0.9% | 21.1% | i
O=C(Cc1ccccc1)Nc1c(C(=O)N2CCOCC2)cnn1-c1ccccc1 | x | x | 2.4% | 0.2% | x
Cc1ccc(-c2nc(CSCC(=O)N3CCCC3)c(C)o2)cc1 | i | 1.24e-08 | -0.5% | 4.0%[11.4 µM] | i
Cc1cc(C)c(S(=O)(=O)NCC2CCC(C(=O)NCCCN3CCOCC3)CC2)c(C)c1 (stereo not drawn) | i | 3.01e-08 | -1.5% | 2.8% | i
Clc1ccc(-c2nnc(-c3ccc(Br)o3)o2)c(Cl)c1 | x | x | -1.1% | 6.6% | x
Cc1sc(NC(=O)c2ccco2)c(CN2CCCCC2)c1C | i | 8.1e-09 | 1.9% | -0.5% | i
Cc1nc2cc(NC(=O)N3CC4(C)CC3CC(C)(C)C4)ccc2n1C (stereo not drawn) | i | 2.17e-08 | -4.1% | 2.6% | i
Cc1cc(S(=O)(=O)N2CCCC2)c(C)s1 | i | 7.1e-09 | -0.4% | x | i
CCCCn1c(CNC(C)=O)nc2ccccc21 | x | x | 0.8% | 3.5% | x
CCn1c(CNc2cccc(Cl)c2)nnc1SCc1ccccc1 | i | 2.24e-08 | 1.8% | u | i
CCOc1cc(NC(=O)c2ccco2)c(OCC)cc1NC(=O)COc1ccccc1 | i | 1.47e-08 | 0.7% | u | i
